PrP 5UTR inh: suppresses PrP 5' UTR mRNA reporter expression; cell-based PrP 5' UTR mRNA reporter, plate reader; inhibition, % (no concentration beside the values); hit rate 0.35% among 340,000;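 active = every replicate at 50% or more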;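 note: 0 = median of the neutral control wells; tested in H4 reporter cells; numbers are from one replicate; inactives centre near -14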
Autofluor counter: compound fluorescence in toxin protease inhibitor counterscreen; compound autofluorescence counterscreen, microsphere flow cytometry; stronger effect = higher value; fluorescence intensity (no concentration beside the values); hit rate 3.1% among 360,000;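 active = at least 3 SD above the mean of all compounds, about 16000 in these data; inconclusive = too few beads counted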;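 note: 100 nL of 1 mM stock went into each well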
RN4220 kill: kills Staphylococcus aureus RN4220; S. aureus RN4220 growth, OD600, 16 h; inhibition, % (no concentration beside the values); hit rate 0.33% among 330,000;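 active = z-score of -3 or lower and OD600 up to 0.18 on both plates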;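 note: plate controls were untreated cells for no effect and reference antibiotic for full effect; stock transfer was 100 nL into about 80 µL; one replicate is shown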
Mtb hypoxia rep: inhibitors of hypoxia-regulated fluorescent reporter in Mycobacterium tuberculosis | M. tuberculosis hypoxia-regulated fluorescent reporter, fluorescence | hit rate 0.1% among 300,000 | AID 1159583 | fluorescence inhibition, % (test concentration not listed);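 active = 35 to 45% if threefold the growth effect, above 45% if 1.5-fold the growth effect; inactive = the rest, general growth blockers included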;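 note: wells of about 50 µL received 100 nL stock; 0% = vehicle wells and 100% = reference inhibitor wells; whole bacteria with a GFP reporter of the hypoxia response; strong numbers were not always called active; many hits fall short of the cut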
ugtP null kill: kills S. aureus RN4220 lacking UgtP; S. aureus RN4220 ugtP deletion, OD600 growth, 16 h; some inactives read as strong as hits; growth inhibition, % (concentration not given with the values); hit rate 0.54% among 330,000; AID 1259309;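 active = z-score under -3 and OD600 up to 0.15 on both plates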;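 note: plate controls were untreated wells for no effect and antibiotic for full effect; wells of about 80 µL received 100 nL stock; the first replicate is given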
BJeLR viability: kills HRASV12-expressing BJeLR cells. AID 1554. BJeLR (HRASV12) viability, CellTiter-Glo ATP luminescence, 48 h; reference of the scale not given here. inhibition, % (no concentration beside the values). hit rate 0.17% among 300,000;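 active = replicate mean above 50%; inconclusive = above 50% but judged a plate artefact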;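 note: 50 nL library stock added to about 25 µL; numbers are from one replicate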
Mtb hypoxia rep growth: further read-out of Mtb hypoxia rep, marked with its call; growth inhibition, %; measured here: M. tuberculosis growth (absorbance);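 0% = vehicle and 100% = reference antibiotic; read after six days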
Numbers without * were called inactive; ? = inconclusive; · = not tested or not shown. No enrichment for hits. About 4.1% of those tested had a hit in this group.

smiles,PrP 5UTR inh,Autofluor counter,RN4220 kill,Mtb hypoxia rep,Mtb hypoxia rep growth,ugtP null kill,BJeLR viability
O=C(Nc1ccccc1C(F)(F)F)c1cc(-c2cccc(O)c2)on1,-53.8,11501,2.3,9.8,0.5,6.4,3.1
Cc1c(C(=O)Nc2ccc3c(c2)CCC3)cccc1[N+](=O)[O-],-52.8,9139,6.8,-2.5,10.2,-9.4,8.4
CCCCOP(=O)(OCCCC)/C(C#N)=C(/C)O,-12.8,2544,·,·,·,·,4.9
COCCNC(=O)/C(C#N)=C\c1ccc(CNS(=O)(=O)c2ccc(C)cc2)o1,-32.7,4287,1.9,-5.4,-5.5,3.5,5.2
CCOc1ccc2nc(C(=O)N3CCCC(C)C3)sc2c1 (stereo not given),-103.1,2610,1.1,-3.0,1.9,1.9,-0.5
COc1ccc(N2CCN(C(=O)c3ccc(CS(=O)(=O)c4ccc(OC)cc4)o3)CC2)cc1,-48.2,5212,-0.5,·,·,8.0,3.5
CC(C)Cn1c2c(c(O)c(C(=O)Nc3nc4ccccc4s3)c1=O)CCCC2,-15.6,3826,0.5,8.1,2.6,67.8,3.6
O=C(CSc1nnnn1-c1ccc(O)cc1)NC1CCCCC1,-23.7,3526,0.5,15.7,13.1,6.5,2.5
COc1ccc(CC(=O)N2N=C(c3ccncc3)CC2(O)C(F)(F)F)cc1 (stereo not given),-35.5,2754,5.5,0.7,3.4,-6.6,2.3
CC(C)CCNC(=O)C(C)N(Cc1ccc(F)cc1)C(=O)c1ccc(CN2CCCCC2)o1 (stereo not given),-15.5,9704,-6.6,-4.5,1.0,-6.9,-5.4
CCCCNC(=O)N(C)c1nc2ccccc2s1,-89.6,4090,7.1,18.2,19.6,4.2,-1.9
O=C(Oc1coc(CSc2ncccn2)cc1=O)c1ccco1,5.8,6260,6.1,-5.4,-6.4,2.1,-12.5
CC(c1n[nH]c(=S)n1-c1ccc(Cl)cc1)N(C)C (stereo not given),-10.7,8708,2.7,-4.2,-2.1,4.2,-8.5
Cc1cc(N2C(=O)c3ccc(C(=O)Nc4ccc(O)cc4C(=O)O)cc3C2=O)no1,-14.0,5753,·,·,·,·,-3.5
Cc1cc(C)c2nc(N(CCCN(C)C)C(=O)c3ccc(S(=O)(=O)N4CC(C)OC(C)C4)cc3)sc2c1 (stereo not given),-11.8,·,-3.7,7.5,2.4,5.6,15.6
CCOC(=O)N1CCN(CC(=O)Nc2c(C(=O)OC)[nH]c3cc(C)ccc23)CC1,-4.6,23057*,2.2,0.7,7.4,0.0,-11.0
CC(C)=CCCC(C)CN1CCC(N2CCC(C(=O)N3CCCC3)CC2)CC1 (stereo not given),-22.0,8515,-0.1,0.4,3.5,-0.8,4.1
c1ccc(-c2cc3c(N4CCN(c5ccccc5)CC4)ncnc3s2)cc1,-16.9,4562,5.6,10.5,7.5,-16.2,-4.0
CCOCCn1c(=O)c2c(nc3n2CC(C)CN3CCc2ccccc2)n(C)c1=O (stereo not given),-12.2,5103,-2.1,4.1,11.3,3.4,-12.1
COc1ccc(CC(=O)OC(C)CN2CCCC2)cc1 (stereo not given),-14.4,4113,11.4,·,·,12.5,3.7
CCOC(=O)C1=CN2CCCC2CC1=O (stereo not given),·,·,4.0,6.8,11.9,4.7,·
Cc1ccccc1C(=O)NC(=S)Nc1sc2c(c1C#N)CCC(C)C2 (stereo not given),-54.4,3946,1.6,·,·,34.1,-1.7
Cc1ccc(C)c(NC(=S)NCCc2cnc[nH]2)c1,-10.4,3270,0.3,1.7,9.0,2.6,-3.1
CCc1nc2ccccc2n1CC(=O)NC1CCS(=O)(=O)C1 (stereo not given),-59.4,4216,3.1,4.7,2.4,1.5,·
CN(CCCNC(=O)C1CCC(CNS(=O)(=O)c2ccccc2)CC1)Cc1ccccc1 (stereo not given),-11.1,6034,4.8,-5.0,7.1,11.4,-8.0

Reprinted from the part before: 4 entries; new compounds follow.
smiles,PrP 5UTR inh,Autofluor counter,RN4220 kill,Mtb hypoxia rep,Mtb hypoxia rep growth,ugtP null kill,BJeLR viability
Cc1ccccc1C(=O)NC(=S)Nc1sc2c(c1C#N)CCC(C)C2 (stereo not given),-54.4,3946,1.6,·,·,34.1,-1.7
Cc1ccc(C)c(NC(=S)NCCc2cnc[nH]2)c1,-10.4,3270,0.3,1.7,9.0,2.6,-3.1
CCc1nc2ccccc2n1CC(=O)NC1CCS(=O)(=O)C1 (stereo not given),-59.4,4216,3.1,4.7,2.4,1.5,·
CN(CCCNC(=O)C1CCC(CNS(=O)(=O)c2ccccc2)CC1)Cc1ccccc1 (stereo not given),-11.1,6034,4.8,-5.0,7.1,11.4,-8.0
Cc1cc(NC2CCCC2)n2ncc(-c3ccccc3)c2n1,37.6,4020,9.8,1.2,9.4,19.2,-6.7
CCOC(=O)c1c(NC(=O)c2cc(-c3cccc(O)c3)on2)sc(C(C)=O)c1C,0.5,5808,-2.5,7.5,8.9,12.3,-7.3
Cc1ccc(C(=O)Nc2cccnc2)cc1S(=O)(=O)N1CCOCC1,-1.7,?,3.3,6.4,5.7,6.4,-0.5
COc1ccc(N2CCN(C(=O)Cc3ncc(C(F)(F)F)cc3Cl)CC2)cc1,-13.3,23985*,1.0,9.3,18.8,0.4,0.9
CCOC(=O)N1CCN(C2CCCN(C(=O)c3ccccc3C(F)(F)F)C2)CC1 (stereo not given),1.6,5762,3.5,5.5,9.7,7.1,-0.4
CCOc1ccc(CNC(=O)C2CCCN(c3nnc(C)c4c(C)n(-c5ccccc5)nc34)C2)cc1 (stereo not given),-4.2,9865,-1.7,2.7,9.9,0.9,-6.1
Cc1sc2ncnc(N[C@@H](CCC(=O)O)C(=O)O)c2c1C,-7.2,3169,-5.0,9.1,7.1,0.8,0.6
Cc1ccc(NC(=O)CSc2nnc(-c3ccco3)o2)c(C)c1,-25.5,2437,2.6,6.6,11.9,-8.0,-1.3
Cc1nnc(NC(=O)CSc2nnc(Cc3cccn3C)n2-c2ccccc2)s1,-3.4,5914,-7.8,6.8,6.1,0.4,1.6
CCOC(=O)C1C2COc3ccc(OC)cc3C2N2C(=O)c3ccc(F)cc3NC(=O)[C@@]12C (stereo not given in full),·,·,7.9,18.2,1.2,6.3,·
COc1cc(OC)cc(C(=O)N/N=C/c2ccc(OC)c(COc3ccc(F)cc3)c2)c1,-34.5,3160,·,·,·,·,17.3
CC(=O)NC1CC2CCCC(C1)N2 (stereo not given),-20.6,4596,2.6,11.0,8.3,3.0,-12.1
O=C(O)c1cnn2c1C(=O)N(Cc1cccs1)CC2,-15.0,4829,1.0,-7.4,-1.5,1.1,·
CCCc1nc2c(=O)[nH]c3ccccc3c2o1,10.0,6498,-0.2,5.6,1.1,-5.3,-6.1
Cc1ccc(NC(=O)CCC(=O)NNC(=S)Nc2ccc(F)cc2)c(C)c1,-13.8,3661,0.9,7.3,4.6,4.6,4.7
Cc1ccc(NC(=O)CNc2cccc(C)c2C)c(C)c1,-29.0,4019,-1.3,5.4,13.1,3.6,6.1
CC(OC(=O)CCN=C1NS(=O)(=O)c2ccccc21)C(=O)Nc1ccc(F)cc1 (stereo not given),-3.0,·,-0.8,-1.0,-3.4,-2.3,5.0
O=[N+]([O-])c1cc(S(=O)(=O)Nc2cccc(Cl)c2)ccc1NN=Cc1ccc(N2CCOCC2)cc1,·,·,-1.7,7.6,-0.3,-11.9,·
N#C/C(=C\c1ccncc1)c1nc2ccccc2[nH]1,-4.7,4837,·,·,·,·,11.9
CCOc1ccccc1NC(=O)C1CCCN(C(=O)Nc2ccccc2)C1 (stereo not given),-15.3,3954,0.3,20.9,6.4,3.1,-0.3
COc1ccc2c(Cl)c(C(=O)NCCc3ccc(S(N)(=O)=O)cc3)sc2c1,-49.2,4151,5.0,-1.7,-12.5,3.0,2.6
CCOC(=O)c1nn(-c2ccccc2F)c2nc(Nc3ccccc3)cc(=O)n12,-12.9,2500,2.8,12.0,11.5,4.9,5.7
CCOC(=O)c1c(C)[nH]c(NC(=O)Nc2c(C)n(C)n(-c3ccccc3)c2=O)c1C,-18.1,9534,-0.1,0.1,-3.9,-2.2,2.6
CCc1ccccc1NC(=S)/N=C(\N)Nc1nc(C)c2cc(C)ccc2n1,-18.3,7630,·,·,·,·,-1.8
COc1ccc(-c2noc(N3CCC(C(=O)Nc4ccc(OC)cc4OC)CC3)n2)cc1,-11.6,5444,7.4,0.7,7.7,2.3,18.2
O=C(CCCCCNC(=O)N1CCn2c1nc1ccccc12)NCCc1ccccc1,3.0,6467,-4.5,9.7,7.1,8.3,-4.4
O=C(COc1cccc(F)c1)NNC(=O)Cc1ccc(Br)cc1,-43.9,6253,-1.7,6.7,25.5,-0.3,·
COCCN1C(=S)NC(c2cccc(C(F)(F)F)c2)C(C(=O)N2CCOCC2)=C1C (stereo not given),-23.5,4368,10.4,4.8,17.7,3.4,5.7
COc1ccc(C=CC(=O)c2ccccc2O)cc1,·,·,8.7,6.2,4.5,7.6,·
Cc1ccc(N2CC(C(=O)OCC(=O)C(C)(C)C)CC2=O)cc1 (stereo not given),45.2,23049*,6.4,0.1,3.4,2.6,1.7
Cc1cccc(NC(=O)C2CCCN2C(=O)NC2CCCCC2)c1 (stereo not given),-9.6,4073,1.3,17.4,-0.6,-0.1,6.2
COc1ccc(C(=O)COc2ccccc2C#N)cc1,-30.4,6511,4.3,-2.2,-4.5,2.4,14.7
COc1ccc(NC(=O)c2cc(-c3ccccn3)nc3ccccc23)c(OC)c1,-10.5,3599,-0.2,4.0,-3.6,-4.3,·
O=C(Nc1ccc(N2CCCCC2)cc1)C1CCCN1S(=O)(=O)c1ccc(F)cc1 (stereo not given),-7.0,7628,8.1,4.7,0.2,2.9,·
COc1ccc(C(CNc2ccc(C(F)(F)F)cn2)N(C)C)cc1OC (stereo not given),-13.7,3245,-0.6,9.6,-1.3,4.3,7.3
O=S1(=O)CCC(N=Cc2cc(Br)ccc2O)C1 (stereo not given),3.6,5968,8.8,·,·,8.0,2.1
Cc1cc(-c2nnc3sc(C4CCCCC4)nn23)n[nH]1,-20.7,3080,3.4,-0.5,2.2,-2.5,-5.5
CC(=O)Nc1ccc(N(C(=O)Cc2c[nH]c3ccccc23)C(C(=O)NC2CCCCC2)c2ccco2)cc1 (stereo not given),-1.8,2129,4.7,-3.4,1.3,4.2,-8.7
CCCn1nc(NC(=O)c2ccccn2)c2cc3cc(C)ccc3nc21,-44.5,15130,27.8,7.2,-1.4,7.8,0.1
CNC(=S)NNC(=O)c1sc(-c2cc(C)on2)nc1C,·,?,3.3,-2.1,-4.1,-2.5,4.8
COCCSc1ccccc1C(=O)Nc1cc(C)on1,-25.3,8002,1.5,4.1,12.2,6.7,0.7
O=C(/C=C/c1ccco1)NCC(=O)N/N=C/c1ccc(Cl)cc1,-44.9,2066,·,·,·,·,-3.2
CN(C)c1ccc(NC(=O)CCn2c(=S)oc3ccccc32)cc1,-66.7,1769,7.6,·,·,8.5,-10.7
N#CCCN(C(=O)COC(=O)CNC(=O)c1ccc(-c2ccccc2)cc1)c1ccc(F)cc1,-43.1,4967,-5.1,-1.6,-6.9,7.6,7.4
CC(=O)O[C@H]1CC[C@H]2[C@@H]3CCc4cc(O)ccc4[C@H]3CC[C@]12C,-16.9,5403,·,·,·,·,-0.8
CCOC(=O)C1=C(C)c2ccccc2OC1(C(=O)OCC)C(C)C (stereo not given),-4.0,3218,9.0,6.3,1.5,21.4,·
CN1CCN(NC(=S)Nc2ccc(Oc3ccccc3)cc2)CC1,-11.0,2998,2.3,16.3,5.0,13.5,-9.8
N#C/C(=C/C1=C(N2CCOCC2)C(=C/c2ccc(Cl)cc2)/CC1)C(=O)Nc1ccccc1F,-17.4,4600,-1.3,6.1,-2.6,-4.9,·
C/C(=N\NC(=O)c1c(Cl)c(C)nn1C)c1ccc(NC(=O)C2CCC2)cc1,22.6,6392,·,·,·,·,22.1

Screens as filed in PubChem.
